Assay outcomes as filed in PubChem.
TsaE inh: qHTS Assay for Inhibitors of YjeE | tRNA threonylcarbamoyladenosine biosynthesis protein TsaE (Escherichia coli (strain … | purified YjeE, fluorescence polarisation of a bound ADP probe | Potency, µM | 0.05% of 71,000 active | AID 605, 2007; active = well fitted falling curve; inconclusive = weaker or top-dose-only fall, or a rising curve; inactive = flat or poorly fitted curve;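 also: top concentration of the series not given in the record; excess ADP was the control for the full effect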
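Fluorescence polarization of a BODIPY Texas Red–ADP probe (2 uM) bound to purified YjeE (10 uM) was read after 15 min room-temperature incubation with compounds. Loss of polarization marks inhibitors; ADP serves as titrated control.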
PK Bst: Pyruvate Kinase; partly purified Bacillus stearothermophilus pyruvate kinase, luminescence ATP production; ribose 5-phosphate activator present at AC10; Potency, µM; 1.2% of 51,000 active; in the data active means potency below about 11 µM; inconclusive means mostly about 12 µM to 25 µM; inactive means weaker than that;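 the screen sought inhibitors and activators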;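 also: potency is read from the fitted curve at half-maximal effect; scaled between full activation by ribose 5 phosphate and full inhibition by luteolin; about four in five hits inhibit and the cells do not say which; series up to 57 µM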
Numbers without * were called inactive; i = inactive; ? = inconclusive; . = not tested or not shown. An excerpt; the hit share may differ from the screen's.

A first look:
SMILES	TsaE inh	PK Bst
CC(c1ccccc1)C1C(C#N)=C(N)SC(N)=C1C#N (configuration not stated)	i	>57
Cc1cccc(N2CC(C(=O)O)CC2=O)c1 (configuration not stated)	i	>57
CC(C)(C)Nc1cccccc1=O	i	>57

Results (from the top)
SMILES	TsaE inh	PK Bst
CC(c1ccccc1)C1C(C#N)=C(N)SC(N)=C1C#N (configuration not stated)	i	>57
Cc1cccc(N2CC(C(=O)O)CC2=O)c1 (configuration not stated)	i	>57
CC(C)(C)Nc1cccccc1=O	i	>57
CCC(Sc1nc(=O)cc(N)n1CCc1ccccc1)C(=O)Nc1ccccc1C#N (configuration not stated)	i	>57
COc1ccc(OC)c(S(=O)(=O)Nc2ccc(O)c3ccccc23)c1	i	>57
O=S(=O)(NCc1cccnc1)c1cccc2nsnc12	.	>26
O=C(CSc1nc2ccccc2o1)Nc1ccccc1	i	.
CC1CCN(S(=O)(=O)c2cccc(C(=O)Nc3ccccn3)c2)CC1	i	.
CC(=O)c1ccc(NC(=O)C2CCCN2S(=O)(=O)c2cccc3cccnc23)cc1 (configuration not stated)	i	.
CC(C)Cn1c(=O)c(C(=O)Nc2cnccn2)c(O)c2ccccc21	i	>57
COc1ccc(N2CCN(C(=O)CSc3nc4cc(OC)c(OC)cc4cc3C#N)CC2)cc1	i	>57
O=C(Nc1ccccn1)C1CCN(S(=O)(=O)c2cccs2)CC1	i	>57
CC(=O)c1coc2ccc(OCCN3CCCCC3)cc12	i	.
COc1ccc(OCCNC(=O)c2ccccc2OCC(=O)N2CCCCC2)cc1	i	>57
CCC(=NCCc1ccccc1)C1=C(O)CCC1=O	i	.
O=C(C1CCC(CNS(=O)(=O)c2cccc3cccnc23)CC1)N1CCCC1 (configuration not stated)	i	.
CCOC(=O)C(CC)(CCC(=O)O)c1csc(N)n1 (configuration not stated)	i	.
COC1=Cc2c(ccc3ccc(=O)oc23)OC1(C)C	i	.
CC(=O)Nc1ccc(S(=O)(=O)NCC2CCC(C(=O)NCCC(C)C)CC2)cc1 (configuration not stated)	i	>57
CCOc1ccc(N=C2SC(C(=O)O)CC(=O)N2C)cc1 (configuration not stated)	i	>57
CCc1ccc(OC(=O)c2ccn(CC)n2)cc1	i	?
CCOC(=O)c1ccc2nc3c(cc2c1)CCS3	i	i
O=C(CS(=O)CC(=O)N(CC(=O)NC1CCCC1)C1CCCCC1)Nc1ccc(F)cc1 (configuration not stated)	i	>57
CCCCOc1ccc(NC(=O)CSCC(=O)OCC)cc1	i	>57
O=C(NCc1ccc2c(c1)OCO2)c1ccc2snnc2c1	i	>57
O=C1C=C(NCCNc2c(F)c(F)c(CO)c(F)c2F)CCC1	.	>26
C=CCc1c(C)[nH]c(=S)c(C#N)c1C	i	>57
CC(C)n1c(Nn2cnnc2)nc2ccccc21	i	>57
Cc1cc(C#N)c(C)n1-c1cc(C(F)(F)F)ccc1N1CCOCC1	i	>57
S=c1[nH]nc(-c2ccc3ccccc3n2)o1	i	>57
CCOc1ccc(-c2nc(CSCC(=O)N3CCN(c4cccc(OC)c4)CC3)c(C)o2)cc1	i	.
COc1ccccc1N1CCN(C(=O)c2ccc3c(=O)n(Cc4ccco4)c(=S)[nH]c3c2)CC1	i	>57
NCCC1([N+](=O)[O-])CCNCC1	i	.
O=C(O)C[C@H](Cc1ccccc1)C(=O)O	i	.
OCCN(CO)CO	i	.
CCOC(=O)CCc1c(C)c2c(C)nn(-c3ccccc3)c2[nH]c1=O	i	.
CCCOc1ccc(C2C(C(=O)OC)=CN(CCOC)C=C2C(=O)OC)cc1	i	.
O=C1CCC(=O)N1OCCOc1ccc2c(c1)CCC2	i	>57
COc1cc(NC(=O)c2cc(-n3cnnc3)ccc2Cl)cc(OC)c1	i	.
c1ccc(NN(Cc2cnccn2)c2ccccc2)cc1	i	.

Entries of single compounds from above:
`CCOC(=O)CCc1c(C)c2c(C)nn(-c3ccccc3)c2[nH]c1=O` is listed as TsaE inh = i; PK Bst = .
`O=C(C1CCC(CNS(=O)(=O)c2cccc3cccnc23)CC1)N1CCCC1` (configuration not stated) is listed as TsaE inh = i; PK Bst = .

Following part:
SMILES	TsaE inh	PK Bst
O=C1CCCN1CN(C(=O)c1ccc2c(c1)OCO2)c1cccc(Cl)c1	i	>57
C=CCSc1n[nH]c(-c2ccc(OC)cc2)n1	i	.
CCOC(=O)c1nnn(-c2nc(OC)nc(N(C)C)n2)c1-c1ccccc1	i	>57
CC(C)CC(OC(=O)c1cccs1)C(=O)NCc1ccco1 (configuration not stated)	i	>57
CCN(C(=O)COc1ccccc1)c1nnc(-c2cccnc2)s1	i	>57
Nn1c(-c2cccc(Br)c2)n[nH]c1=S	i	>57
CCOc1ccc(NC(=O)CSc2nnc(C3CC3)n2N)cc1	i	>57
Cn1c2ccccc2c2ncn(CCC3=CCCCC3)c(=O)c21	i	.
COc1ccc(-c2nnc(N(C)C(=O)c3cccnc3)s2)cc1	i	.
COC(=O)C(C)Sc1nc2c(c(=O)n(C)c(=O)n2C)n1CCC(C)C (configuration not stated)	.	>26
COc1ccc(OCCN2C(=O)NC(C)(c3ccc(C)cc3)C2=O)cc1 (configuration not stated)	i	>57
C=CCn1c(COc2cccc3ccc(C)nc23)nnc1SCC(=O)OC	i	>57
N#Cc1cccc(-c2ccc3ncnc(NCc4cccnc4)c3c2)c1	?	.
COC(=O)[C@@]1(Cc2ccc(OC)cc2)[C@H]2c3cc(C(=O)N4CCCC4)n(Cc4nc5ccccc5[nH]4)c3C[C@H]2CN1C(=O)c1ccccc1	i	.
CC(NC(=O)C(NC(=O)C1CCCN1C(=O)OC(C)(C)C)C(C)C)C(N)=O (configuration not stated)	i	>57
CCOC(=O)C1CCCN(C(=O)COC(=O)C2=COCCO2)C1 (configuration not stated)	i	>57
CN(C)S(=O)(=O)c1ccc(C(=O)Nc2ccnn2C2CCCCC2)cc1	i	>57
COc1ccc(S(=O)(=O)N2CCCN(Cc3cccc(F)c3)CC2)cc1	i	>57
CC(NC(=O)OC1CCCCC1)N1C(=O)C2C3C=CC(C3)C2C1=O (configuration not stated)	i	>57
CCNc1ncc2ncc(=O)n(CCc3ccccc3)c2n1	i	.
Cc1noc(C(=O)Nc2ccccc2C(F)(F)F)c1Cl	i	>57
COCCNC(=O)c1sc2ncn(CC(=O)N3CCCCC3)c(=O)c2c1C	i	>57
CSc1nnc2c3ccccc3n(Cc3ccccc3)c2n1	i	>57
COc1ccccc1-c1ccc2ncnc(N3CCOCC3)c2c1	i	.
CCCC(=O)Nc1ccc(Cl)c(NC(=O)c2cccnc2)c1	i	>57
Cc1ccc(C)n1CCN1CCN(CC(=O)Nc2ccc(S(N)(=O)=O)cc2)CC1	i	>57
COc1cc(OC)cc(-c2nc(-c3ccccc3)no2)c1	i	.
Cc1[nH]nc(-c2ccc(O)cc2O)c1-c1ccc(Cl)cc1	i	>57
CN(C)CCCNCCCNC(=O)/C(=N\O)c1ccccn1	i	.
Cc1onc(-c2c(Cl)cccc2Cl)c1C(=O)NC(C)(C)CO	i	>57
Cc1cc(C)c(-c2cc(NC(=O)CSc3nncn3C)n(-c3ccccc3)n2)cc1C	i	>57
Cn1c(N2CCN(c3ccccn3)CC2)nc2c1c(=O)n(Cc1ccccc1Cl)c(=O)n2C	.	>26
CN(Cc1ccco1)c1ccnc(-c2cccc(C#N)c2)n1	i	.
Cc1cccc(OCCCC(=O)Nc2ccc(N3CCOCC3)cc2)c1	i	.
Cc1cc(N2CC(=O)N(CCc3ccccc3)C(=O)C2)n2ncnc2n1	i	>57
OC(COc1ccccc1)CN1C2=NCCCN2c2ccccc21 (configuration not stated)	i	>57
Cc1cc(NC(=O)COC(=O)c2ccc(F)c(S(=O)(=O)N3CCOCC3)c2)no1	i	>57
O=C(NCCCN1CCCCC1)C1CCC(=O)N1CCc1ccccc1 (configuration not stated)	i	>57
C=CCn1c(C2CC(=O)N(c3ccc(C)cc3)C2)nc2ccccc21 (configuration not stated)	.	>26
COc1ccc(Oc2ncc3nc(-c4ccc(F)cc4)c(=O)n(C[C@H]4CCCO4)c3n2)cc1	i	.

Reprinted from the part before: 3 entries, then new ones.
SMILES	TsaE inh	PK Bst
O=C(NCCCN1CCCCC1)C1CCC(=O)N1CCc1ccccc1 (configuration not stated)	i	>57
C=CCn1c(C2CC(=O)N(c3ccc(C)cc3)C2)nc2ccccc21 (configuration not stated)	.	>26
COc1ccc(Oc2ncc3nc(-c4ccc(F)cc4)c(=O)n(C[C@H]4CCCO4)c3n2)cc1	i	.
C=CCc1ccccc1OCCn1ccnc1	i	>57
COC(=O)c1ccccc1NC(=O)C1CC(=O)N(c2ccccc2)C1 (configuration not stated)	i	.
Cn1c(=O)c2c(nc(NCc3ccc4c(c3)OCO4)n2C)n(C)c1=O	i	>57
CCCCNC(=O)c1nc2ncc(Br)cn2n1	i	.
CCCCCNC(=O)c1c(N)n(/N=C/c2ccco2)c2nc3ccccc3nc12	.	>26
CC(C)c1ccc(N(CC(=O)O)S(=O)(=O)c2cccnc2)cc1	i	.
CSc1ccc(C2C(C#N)=C(N)Oc3cc4c(cc32)OCO4)cc1 (configuration not stated)	i	>57
Cc1ccc(-n2nnc3ccccc3c2=O)cc1C	i	.
O=C(Nc1ccccc1)Nc1ccccn1	i	.
O=C1CC(C(=O)N2CCN(c3ccc(F)cc3)CC2)CN1CCc1ccccc1 (configuration not stated)	i	.
CC(=O)c1ccc(OCCCC(=O)N2CCN(S(=O)(=O)c3cccs3)CC2)cc1	i	>57
COCCNC(=O)c1c(N)n(CCC2=CCCCC2)c2nc3ccccc3nc12	.	>26
COc1ccc(C(=O)NCCSCc2ccco2)cc1OC	i	.
Cc1nc(N2CCOCC2)c2nc(-c3ccccc3)n(CC(C)(C)CN(C)C)c2n1	i	.
O=C1c2ccccc2S(=O)(=O)N1Cc1nnc(-c2ccccc2Br)o1	i	.
COc1ccccc1N1CCN(c2cc(=O)n(-c3ccc(Br)cc3)c(=O)[nH]2)CC1	i	>57
CS(=O)(=O)N(CC(=O)N1CCOCC1)Cc1ccccc1	i	>57
CN(C)C(=O)c1nc(C#N)c(N(C)C)o1	i	>57
O=C(NC1CCCCC1)N1CCC(n2cnc3ccccc32)CC1	i	>57
CC(C)(C)N1C(=O)Cc2c1nc(N)c1c(N)nc(N3CCCCC3CO)c(C#N)c21 (configuration not stated)	i	.

3 entries out of the list, ordered by molar mass, descending.
SMILES	TsaE inh	PK Bst
CSc1nnc2c3ccccc3n(Cc3ccccc3)c2n1	i	>57
CC(=O)c1coc2ccc(OCCN3CCCCC3)cc12	i	.
COc1cc(OC)cc(-c2nc(-c3ccccc3)no2)c1	i	.

Next compounds:
SMILES	TsaE inh	PK Bst
CCOc1ccc2[nH]c(=O)c(CN(CC3COCCO3)C(=O)c3ccco3)cc2c1 (configuration not stated)	i	>57
Clc1ccc(C=Nc2ccc3c(c2)Cc2ccccc2-3)c(Cl)c1	i	.
C/C(=C\C(=O)c1ccc(Br)cc1)N1CCCCC1	i	.
CC(C)N(Cc1cc2ccccc2[nH]c1=O)C(=O)C(C)(C)C	i	>57
CCCn1c(N2CCN(CC(=O)c3c[nH]c4ccccc34)CC2)nc2c1c(=O)[nH]c(=O)n2C	i	>57
COc1ccc(CCNC(=O)CSc2nnc(CNC(=O)c3ccccc3F)o2)cc1OC	i	>57
Cc1ccc(C(=O)CC2(O)C(=O)N(CN3CCOCC3)c3ccccc32)cc1 (configuration not stated)	i	>57
CCOc1ccc(C2N(c3ccc(Cl)cc3)C(=O)C3CCCN32)cc1OC (configuration not stated)	i	.
CCCCS(=O)(=O)NC1=NCN(CCOC(=O)c2ccccc2)CN1	i	.
C=CCc1cccc2cc(C(=O)NC(C)(C)C)c(=O)oc12	i	>57
CC(C)NC(=O)CSc1nc2ccccc2c(=O)n1CCCOC(C)C	i	>57
COc1ccc(CCc2nc(-c3ccc(-n4cccc4)cc3)no2)cc1	i	.
O=C1CC(N2CCN(Cc3ccc4c(c3)OCO4)CC2)C(=O)N1c1ccccc1 (configuration not stated)	i	>57
CCCSc1nc2c(c(=O)[nH]c(=O)n2C)n1Cc1ccc(C)cc1	i	>57
CCOC(=O)c1csc(NC(=O)c2ccc(S(=O)(=O)N(C)C)cc2)n1	i	>57
CCOc1cccc(-c2nn3c(-c4ccco4)nnc3s2)c1	.	>11
Cc1csc(SCC(=O)Nc2nc3ccccc3s2)n1	i	>57
Cn1cccc1C(=O)N1CCC2(CCCN(c3cccc(-c4ccccc4)c3)C2)CC1	i	.
CS(=O)(=O)N1CCC2(CC1)CN(c1ccccc1)C2	i	.
Cc1ccc(NC(=O)c2ccco2)c(NC(=O)c2cccs2)c1	i	>57
COc1ccc(CN2CC(C(=O)NCCC3=CCCCC3)CC2=O)cc1 (configuration not stated)	i	>57
COC(=O)c1cc(-c2c(C)nn(-c3ccccc3)c2C)n[nH]1	i	>57
CC(=O)Nc1ccc(Nc2nc(C)nc3c2oc2ccccc23)cc1	i	i
COc1ccc2c(C)c(Cl)c(=O)oc2c1	i	.
O=C(NCC1CCCO1)C1CCCN1C(=O)NC1CCCCC1 (configuration not stated)	i	>57
Cn1c(Cn2c(=O)sc3ccccc32)nnc1SCC(=O)NCc1ccccc1	i	.
Cc1cc(NC(=O)c2cccc(S(=O)(=O)N3CC(c4ccccc4)CC3=O)c2)no1 (configuration not stated)	i	.
COc1ccc(C(=O)N2CCC3(CCCN(Cc4ccncc4)C3)CC2)cc1	i	.
COc1ccc(Nc2ncnc3c2oc2ccccc23)cc1	i	.
O=C(c1ccc(CS(=O)(=O)c2c(Cl)cccc2Cl)o1)N1CCN(c2ccccn2)CC1	i	.
